CSC inhib: cancer stem cell viability inhibitors, primary screen, luminescence. AID 2717, 2010. cancer stem cell-like cells viability. inhibition, % at 7.5 µM. actives 1.1% (n = 300,000);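 active = mean at 75% or more and at least half the replicates too; inconclusive = mean and replicates disagree; tested in HMLE shEcad cells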;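 also: 0% = median of negative and 100% = median of positive control wells; the first replicate is given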
Env fusion inh: inhibitors of HIV-1 Env-driven cell-cell fusion, primary screen, HeLa-JRFL effector, CEM21 target cells, luciferase | inhibition, % at 12.3 µM | actives 1.1% (n = 360,000) | AID 651610, 2012;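 active = mean replicate inhibition score of at least 50 and every replicate individually at or above 50; inconclusive = only one of the two criteria met; inactive = mean below 50 and not all replicates reaching 50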;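 also: 0% = plate neutral controls and 100% = maraviroc near 300 nM; one replicate is shown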
PABP polyA inh: PABP poly(A) RNA binding inhibitors, primary screen, biochemical, fluorescence polarization, uHTS. Polyadenylate-binding protein 1 (Homo sapiens), P11940. inhibition, % at 35 µM. actives 1% (n = 290,000). AID 2014, 2009;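 active = 50% or more with normal probe brightness, or confirmed in later tests; inconclusive = above 50% with abnormal brightness, or retests that disagree; inactive = below 50% or failed in later tests; about a fifth of its hits are not listed in these tables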;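 also: calls also rest on retests at 20 µM and on dose response follow-up; controls were probe without protein and protein plus probe with vehicle; some compounds called inactive have numbers as strong as hits; many hits fall short of the cut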
Target sequence (P11940 whole entry, looked up): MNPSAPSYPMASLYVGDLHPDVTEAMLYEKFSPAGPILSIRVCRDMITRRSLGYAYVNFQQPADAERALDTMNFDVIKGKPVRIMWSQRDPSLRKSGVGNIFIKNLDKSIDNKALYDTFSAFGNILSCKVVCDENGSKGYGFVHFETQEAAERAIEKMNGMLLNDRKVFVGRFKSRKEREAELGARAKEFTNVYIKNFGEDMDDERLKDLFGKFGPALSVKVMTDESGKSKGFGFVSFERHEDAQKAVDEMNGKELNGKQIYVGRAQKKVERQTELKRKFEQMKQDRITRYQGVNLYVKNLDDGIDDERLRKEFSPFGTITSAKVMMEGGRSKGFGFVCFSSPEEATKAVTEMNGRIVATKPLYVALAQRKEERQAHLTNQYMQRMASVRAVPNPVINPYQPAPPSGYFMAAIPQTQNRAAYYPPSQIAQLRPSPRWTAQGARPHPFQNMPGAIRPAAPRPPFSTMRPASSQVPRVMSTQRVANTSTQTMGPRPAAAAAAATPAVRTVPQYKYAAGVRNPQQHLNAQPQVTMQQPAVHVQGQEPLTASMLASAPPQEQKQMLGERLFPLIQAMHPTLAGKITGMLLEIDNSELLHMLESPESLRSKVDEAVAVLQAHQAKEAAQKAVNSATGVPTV
Rce1 inhib: yeast Rce1p protease inhibitors, primary screen, biochemical, fluorescence, cell-free homogeneous; AID 2563, 2010; CAAX prenyl protease 2 (Saccharomyces cerevisiae (strain ATCC 204508 / S288c)), Q03530; yeast membranes, quenched prenylated peptide cleavage fluorescence; actives 0.27% (n = 290,000); calls only;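 active = fall in fluorescence gain of 50% or more versus controls, with final raw signal at or below 3038400; inconclusive = same 50% fall but final raw signal above 3038400; inactive = fall in fluorescence gain under 50%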;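 also: plate controls were neutral control wells for no effect and wells lacking membranes for full effect; tested at 10 µM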
Yeast UUG start: modulators of yeast start codon fidelity, primary screen, whole organism, S. cerevisiae, single point, plate reader; S. cerevisiae UUG-firefly luciferase reporter, luminescence/redox ratio; activity score, % at 18.7 µM; actives 0.13% (n = 350,000); AID 602363, 2012;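 active = replicate mean at a twofold rise or more, about +100% in these data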;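 also: firefly luciferase made from a UUG start codon reports start codon fidelity; reporter light over untreated wells divided by growth signal over untreated wells; some hits fall short of that in this replicate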
MT1-MMP act inh: blockers of MT1-MMP proenzyme processing, primary screen, HT1080 RFP-PRO-GFP cells, GFP/RFP fluorescence | AID 651647, 2012 | GFP/RFP ratio fluorescence, overnight; percent of plate control window, DMSO zero | Matrix metalloproteinase-14 (Homo sapiens), P50281 | GFP/RFP ratio change, % at 20 µM | actives 0.061% (n = 360,000);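 active = GFP/RFP ratio change of at least 30% with cell ATP level not reduced by more than half and red fluorescence within 50% of control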; also: strong numbers were not always called active
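Assay system: HT1080 cells carrying an RFP-PRO-GFP reporter | Dosing: Single dose of 20 µM compound, 1% DMSO final | Incubation: Cells overnight before dosing, compound overnight, 37 °C, 5% CO2 | Evaluation: GFP/RFP fluorescence ratio | Control set: DMSO and RFP-L50D-GFP cell wells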
eIF4H FP inh: human eIF4H binding inhibitors, primary screen, translation initiation inhibitor project, biochemical, uHTS, fluorescence polarization; Eukaryotic translation initiation factor 4H (Homo sapiens), Q15056; eIF4H fluorescence polarization binding assay; inhibition, % at 35 µM; actives 0.94% (n = 290,000);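 active = 50% or more with normal probe brightness, or confirmed in later tests; inconclusive = above 50% with abnormal brightness, or retests that disagree; inactive = below 50% or failed in later tests; about a fifth of its hits are not listed in these tables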;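 also: calls also rest on retests at 20 µM and on dose response follow-up; 0% = protein and probe with vehicle and 100% = probe without protein; strong numbers were not always called active; many hits fall short of the cut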
MT1-MMP act inh RFP: recorded beside MT1-MMP act inh, whose call it bears; RFP signal change, %; measured here: RFP expression control read;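 0 = vehicle wells; hits needed this value within 50% of zero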
An asterisk follows results filed as active; i = inactive; ? = inconclusive; / = no result given; + = active, no number; & = joins results of further samples; [ ] = another dose, or the depositor's remark.

SMILES	CSC inhib	Env fusion inh	PABP polyA inh	Rce1 inhib	Yeast UUG start	MT1-MMP act inh	MT1-MMP act inh RFP	eIF4H FP inh
COC(=O)c1c(NC(=O)c2c(OC)cccc2OC)sc2c1C(C(=O)OC)CC2 (stereo not given)	5	31	-5	i	-4	10	6	-6
COCCCN1C(=O)C(CC(=O)NCCc2ccccn2)CC(C(=O)N2CCOCC2)=C1C (stereo not given)	/	10	/	/	-3	1	2	/
COc1ccc(/C=N/NC(=O)c2cccs2)c2ccccc12	37	-125	/	/	-13	3	1	/
CCOc1ccc(NC(=O)c2ccc3c(c2)S(=O)(=O)N=C2CCCCCN23)cc1	/	33	/	/	-11	2	-2	/
Cc1ccc(C)c(C(=O)COC(=O)CCCC(=O)Nc2cc(C(F)(F)F)ccc2Cl)c1	-6	12	-6	i	/	5	6	-3
CC(C)NC(=O)N(C)C[C@@H]1OCc2cnnn2CCCC(=O)N([C@H](C)CO)C[C@H]1C	/	8[16.7 µM]	/	/	-5&-2&-8	-1	2	/
CC(NC(=O)c1ccc(F)cc1)C(c1cccs1)N1CCN(C)CC1 (stereo not given)	-5	-125	2	i	/	-4	0	-2
O=C(NCc1ccc2c(c1)OCO2)C1CCC(CNS(=O)(=O)c2ccccc2)CC1 (stereo not given)	0	/	-4	i	/	-1	0	0
O=C(NC1CCCCCC1)C1CCCN(S(=O)(=O)c2cnc[nH]2)C1 (stereo not given)	-11	4	4	i	-16	0	0	-10
COc1cc(NC(=O)COc2cc(C)cc3oc(=O)cc(C)c23)cc(OC)c1OC	/	6	/	/	-6	0	-1	/
C[C@@H]1CN(C2CCN(Cc3nc(CC4CC4)no3)CC2)C[C@H](C)O1	-8	11	8	i	/	2	1	4
COc1ccc2cc(-c3cc(C(=O)OCC(=O)NC4CCS(=O)(=O)C4)c4ccccc4n3)ccc2c1 (stereo not given)	-9	-55	15	i	/	-8	-1	-4
CC(C)(C)c1ccc(-c2nc3[nH]c(=O)cc(NC(=O)c4ccco4)n3n2)cc1	-32	-54	-33	i	-18	1	-1	-7
Cc1c(C(c2ccc([N+](=O)[O-])cc2)c2c(C)n(C)n(-c3ccccc3)c2=O)c(=O)n(-c2ccccc2)n1C	-9	/	6	i	13	0	-1	-3
COc1cccc(OC)c1C(=O)NC(=O)NNc1cc(C(F)(F)F)cc(C)n1	-11	-3	0	i	-12	5	1	-1
Cc1cccc(N2CCN(C(=O)Cc3ccc(-n4c(=O)[nH]c5ccsc5c4=O)cc3)CC2)c1C	/	/	-6	i	/	2	-13	0
CN(Cc1ccccc1F)C(=O)c1ccc2c(=O)n3c(nc2c1)CCC3	3	-14	/	i	-1	-1	0	/
O=C1c2cccnc2C(=O)N1CNc1ccc(Cl)cc1	29	0	20	i	-9	4	2	14
Cn1c(N)c(C(=O)CSc2nc(N)cc(N)n2)c(=O)n(C)c1=O	4	1	-14	i	/	5	8	-3
CCCc1cc2c(=O)c(-c3ccccn3)coc2cc1OC	2	-99	-4	i	-22	3	0	-10
Cc1cccc(C(=O)Oc2ccc(/C=N/NC(=O)c3cc(O)cc(O)c3)cc2)c1	3	3	95*	i	-10	0	1	99*
COc1ccccc1OCC(=O)Nc1ccc(S(=O)(=O)Nc2onc(C)c2C)cc1	-9	-1	1	i	3	-1	0	-2
O=C(COC(=O)c1sc2ccccc2c1Cl)Nc1ncc(Cl)cc1Cl	-4	0	-11	i	/	3	8	28
N#Cc1cccc(Cn2cc(C(F)(F)F)ccc2=O)c1	-4	-10	7	i	-5	2	1	4
O=C(Nc1cccc(NC(=O)C2C3CC4OC(=O)C2C4C3)c1)c1ccccc1 (stereo not given)	-22	3	5	i	-14	0	1	24
COc1ccc(NS(=O)(=O)c2c(C(=O)N3CCCCCC3)c(C)n(C)c2C)cc1	-1	6	-6	i	-10	2	2	-12
COCCN1C(=O)C(O)=C(C(=O)c2ccco2)C1c1cccc(Oc2ccccc2)c1 (stereo not given)	7	/	11	i	-17	-7	3	-8
C(=C\c1nc(N2CCCC2)c2ccccc2n1)/c1ccccc1	36	-62	1	i	/	-1	-10	-5
CCC1NC(=O)c2cc3ccccc3cc2-n2c1nc1ccc(OC)cc1c2=O (stereo not given)	/	-13	/	/	-14	3	-1	/
COc1ccc(-c2c(C)oc3c(CN4CCCC(C)C4)c(O)ccc3c2=O)cc1OC (stereo not given)	/	24	-7	i	-15	9	4	-11
COc1ccc(S(=O)(=O)N(CCC#N)Cc2ccco2)cc1OC	-12	-26	-3	i	-11	0	1	-4
COC(C[C@@H](O)C[C@H](O)[C@H](C)OCc1ccccc1)OC	-10	-22	/	+	-13	-1	-4	/
COC(=O)C1=C(C(=O)OC)SC(=C2C(=S)C(C)(C)N(C(=O)CC(C)C)c3ccccc32)S1	-5	/	4	i	-8	29	-2	0
O=C(CSc1nnc(Cc2ccccc2)o1)NCc1ccc2c(c1)OCO2	-3	2	-8	i	10	1	6	-10
COc1ccc(S(=O)(=O)NC(C)C(=O)NCc2ccncc2)cc1Cl (stereo not given)	-12	-8	-1	i	-21	1	3	0
C=CCSc1nnc(NC(=O)c2ccc(S(=O)(=O)NCC3CCCO3)cc2)s1 (stereo not given)	-4	-32	-3	i	-17	5	0	2
NCC12CC3CC(C1)CC(c1ccc(Br)cc1)(C3)C2	22	-22	2	i	-8	-31	-13	-6
COC(=O)c1cc(C(=O)OC)cc(N2C(=O)CN=C2Nc2nc(C)cc(C)n2)c1	24	/	-4	i	-3	1	1	-5
O=C1C2C3C=CC(CO)(O3)C2C(=O)N1c1ccc(-c2ccccc2)cc1 (stereo not given)	?	/	-1	i	/	/	/	0
CCOc1cccc(N(C(=O)CCC(=O)Nc2cc(C)on2)C(C(=O)NC(C)(C)C)c2ccc(OC)cc2)c1 (stereo not given)	/	-17	10	i	-2	-1	1	-7
Cc1cc2nc(-c3ccc(SCC(=O)Nc4nccs4)nc3)[nH]c2cc1C	/	/	-9	/	-5	4	0	-2
CC(C)CCNc1cc(=O)n(C)c(=O)n1C	0	/	-4	i	-5	1	2	-7
Cc1ccc(Nc2nnc(SC3CCOC3=O)s2)c(C)c1 (stereo not given)	17	10	-5	i	-5	-1	-1	-6
CC(=O)NC(C(=O)N1CCC(c2nc3ccccc3s2)CC1)C(C)C (stereo not given)	-1	9	-1	i	-12	-1	-1	0
O=C(c1ccc(NS(=O)(=O)c2ccccc2)cc1)N1CCCC1	20	/	-13	i	-19	1	-2	-7
COCCCNC(=O)c1ccc(N(C)S(=O)(=O)c2ccc(OC)cc2)cc1	4	/	2	i	3	-2	0	6
Nc1nc(SCC(=O)NCCc2ccccc2)[nH]c(=O)c1-c1ccccc1	-2	8	-4	i	/	/	/	5
Cc1cc2c(c(N)n1)c(=O)oc1ccccc12	10	/	12	i	-3	-1	2	-5
O=C(Nc1nc(NC(=O)c2ccco2)n(-c2ccccc2)n1)c1ccccc1	27	/	-2	i	-39	3	-4	18
Cc1ccc(CNC(=O)C2CCC(=O)N(CCc3ccc(Cl)cc3)C2)s1 (stereo not given)	-20	35	-13	i	-3	0	0	-18
COc1ccc(S(=O)(=O)N2CCOC23CCN(C(=O)c2ccccc2Br)CC3)cc1	-19	-6	/	i	20	-26	-18	/
CC1(C)CN(c2ccc(N3CC(C)(C)C3=O)cc2)C1=O	-4	-16	14	i	/	0	4	-10
O=C1OCc2cc(-n3cccc3)ccc21	-17	-21	-4	i	-16	5	-2	18
CC(=O)c1nn(-c2ccccc2)cc1C(=O)c1ccc(Br)cc1	-4	-3	14	i	/	1	2	2
O=C(Cc1c(C(=O)O)[nH]c2ccccc12)Nc1ccc2c(c1)OCO2	3	-20	4	i	-5	2	5	-10
CC1=C(C(=O)N2CCCC(C(=O)c3cccc(C(F)(F)F)c3)C2)OCCO1 (stereo not given)	-13	39	-4	i	/	4	-5	-11
O=C1CCC([N+](=O)[O-])C(c2cccc3ccccc23)N1 (stereo not given)	-5	7	2	i	-12	2	-2	-5
CCN(CC(=O)NCc1ccc(F)cc1)C(=O)c1cccnc1SC	-13	-5	-1	/	2	7	4	-6
COC(=O)c1cn(CCOc2ccccc2F)c2ccccc12	-9	-6	5	i	-16	2	-5	-7
Cn1cnnc1SCC(=O)NCc1cccc(C(F)(F)F)c1	/	/	7	i	-5	0	4	-5

(next part)
SMILES	CSC inhib	Env fusion inh	PABP polyA inh	Rce1 inhib	Yeast UUG start	MT1-MMP act inh	MT1-MMP act inh RFP	eIF4H FP inh
COc1ccc(N/C=C2\CCOC2=O)cc1	/	-70	-8	i	17	1	1	-8
CSc1nc2c(c(=O)[nH]1)C(c1ccncc1)C(C(=O)OC(C)C)=C(C)N2 (stereo not given)	-7	-59	-13	i	-10	2	3	0
COCC(C)NC(=O)CCSc1nc(-c2ccc(OC)cc2)cc(C(F)(F)F)n1 (stereo not given)	-16	-51	5	i	2	3	-1	6
O=C1CCN(S(=O)(=O)c2ccc(Cl)cc2)CCN1	3	-7	-9	i	-17	2	3	7
Cc1ccc(CNS(=O)(=O)c2c(C)n(C)c(=O)n(C)c2=O)cc1	-8	-13	-10	i	/	-3	0	-9
CCNc1cc(Cl)nc(SC)n1	-5	/	-1	i	-8	-3	-2	8
CC(=O)c1cccc(NC(=O)CCOc2ccccc2)c1	0	/	-7	i	-16	3	2	-1
O=C1NC2(CCCCCC2)N=C1c1ccc(Br)cc1	2	0	14	i	/	-1	2	10
COc1ccc(CCNC(=O)C(=O)NCCC2CCCCN2S(=O)(=O)c2ccccc2)cc1 (stereo not given)	10	/	/	i	/	3	-8	/
COC(=O)COc1ccc(C2NC(=O)NC(c3ccccc3)=C2C(C)=O)cc1OC (stereo not given)	-15	/	7	i	-15	-7	-1	-4
C[C@@H](C(=O)NC1CCCC1)N1C(=O)N2CCc3c([nH]c4ccccc34)[C@@]2(C)C1=O	-8	/	8	/	-3	-6	-8	-6
CCOC(=O)C(=CNc1ccc(NC2=NCC(C)(C)S2)cc1)C(=O)OCC	-1	2	-5	i	/	-1	-3	-9
CC(C)CC(NC(N)=O)C(=O)Nc1ccc(Cl)c(Cl)c1 (stereo not given)	6	-16	-6	i	/	0	-3	-7
O=C(COC(=O)c1n[nH]c2ccccc12)Nc1ccc(Cl)cc1[N+](=O)[O-]	6	-10	-7	i	/	3	4	-3

Single records (already shown). Values in the order: CSC inhib, Env fusion inh, PABP polyA inh, Rce1 inhib, Yeast UUG start, MT1-MMP act inh, MT1-MMP act inh RFP, eIF4H FP inh
CCOC(=O)C(=CNc1ccc(NC2=NCC(C)(C)S2)cc1)C(=O)OCC reads -1, 2, -5, i, /, -1, -3, -9
O=C1CCN(S(=O)(=O)c2ccc(Cl)cc2)CCN1 reads 3, -7, -9, i, -17, 2, 3, 7
CCNc1cc(Cl)nc(SC)n1 reads -5, /, -1, i, -8, -3, -2, 8
Cc1ccc(CNS(=O)(=O)c2c(C)n(C)c(=O)n(C)c2=O)cc1 reads -8, -13, -10, i, /, -3, 0, -9
CC(C)CC(NC(N)=O)C(=O)Nc1ccc(Cl)c(Cl)c1 (stereo not given) reads 6, -16, -6, i, /, 0, -3, -7

Source: PubChem
